Calb biofilm kill – mixture kills Candida albicans biofilm cells | C. albicans biofilm persisters + clotrimazole, fluorescence viability; primary screen in compound mixtures of four per well | inhibition, % at 7.6 µM | 0.02% of 120,000 active | AID 1242;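 active means inhibition above 30.3% in the primary screen of four-compound pools, then above 30% when the compound was retested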;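 further: compounds exposed to preformed 24 h biofilms for 48 h; the number belongs to the whole pool; some results filed as inactive read as strong as hits; inactives centre near 12; 0% = biofilm with clotrimazole alone and 100% = kill control; retested singly at about 60 µM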
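System: C. albicans CAF4-2 wild-type biofilms; Medium: RPMI/MOPS medium, pH 7.0; Reagent: Clotrimazole, 50 µg/mL; Times: biofilm formation 24 h, compound exposure 48 h, 37 °C; Detection: 2-h Alamar Blue fluorescence, 535/590 nm excitation/emission; Evaluation: percent inhibition of biofilm viability.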
* = called active by the depositor. Not all compounds are listed (hit frequency here may not be typical).

Start of the listing, in advance:
SMILES	Calb biofilm kill
N#Cc1ccccc1NC(=O)CSc1nnc(-c2ccncc2)o1	7
Cc1ccccc1Oc1nc2ccccn2c(=O)c1/C=C(\C#N)C(=O)Nc1c(C)n(C)n(-c2ccccc2)c1=O	0
Clc1ccc(-c2csc(=Nc3cccnc3)n2CCCn2ccnc2)cc1Cl	5
CC(=O)N/C(=C\c1ccccc1)C(=O)NC(C)C(=O)O (stereo unspecified)	-10
O=C(COC(=O)/C=C/c1ccco1)Nc1cccc([N+](=O)[O-])c1	3
CN(C/C=C/c1ccccc1)C1CCCCC1	4
Cc1nn(-c2ccccc2)c(Cl)c1C(=O)N(C)c1nc(-c2ccc(F)cc2)cs1	16
CC(C)(C)c1cc(NC(=O)Nc2ccc(Br)cc2Cl)no1	14
O=C(NC1CC2CCCC(C1)N2C(=S)NCCc1ccccc1)C1CC1 (stereo unspecified)	5
O=C(NCCNC(=O)c1ccc([N+](=O)[O-])cc1)c1ccncc1	6
CC1=CC(=C(C#N)C#N)C=C(C)N1Cc1ccccc1	17
COc1cccc(-c2n[nH]c(=S)n2Cc2ccco2)c1	18
O=C(O)CC/C(=N\NC(=O)c1ccc(F)cc1)c1ccc(Br)cc1	0
Cc1ccc(CC2CC(=O)N(CC(=O)O)C2=O)cc1 (stereo unspecified)	14
Nc1c(S(=O)(=O)c2ccccc2)nnn1-c1ccccc1	4
Cc1ccc(S(=O)(=O)N2CCC(=O)N(C(COC(=O)Nc3ccccc3)Cc3ccccc3)CC2)cc1 (stereo unspecified)	-2
Cc1cc(N2CCOCC2)nc(SCc2c(Cl)cccc2Cl)n1	17

This part in full, from the first entry:
SMILES	Calb biofilm kill
N#Cc1ccccc1NC(=O)CSc1nnc(-c2ccncc2)o1	7
Cc1ccccc1Oc1nc2ccccn2c(=O)c1/C=C(\C#N)C(=O)Nc1c(C)n(C)n(-c2ccccc2)c1=O	0
Clc1ccc(-c2csc(=Nc3cccnc3)n2CCCn2ccnc2)cc1Cl	5
CC(=O)N/C(=C\c1ccccc1)C(=O)NC(C)C(=O)O (stereo unspecified)	-10
O=C(COC(=O)/C=C/c1ccco1)Nc1cccc([N+](=O)[O-])c1	3
CN(C/C=C/c1ccccc1)C1CCCCC1	4
Cc1nn(-c2ccccc2)c(Cl)c1C(=O)N(C)c1nc(-c2ccc(F)cc2)cs1	16
CC(C)(C)c1cc(NC(=O)Nc2ccc(Br)cc2Cl)no1	14
O=C(NC1CC2CCCC(C1)N2C(=S)NCCc1ccccc1)C1CC1 (stereo unspecified)	5
O=C(NCCNC(=O)c1ccc([N+](=O)[O-])cc1)c1ccncc1	6
CC1=CC(=C(C#N)C#N)C=C(C)N1Cc1ccccc1	17
COc1cccc(-c2n[nH]c(=S)n2Cc2ccco2)c1	18
O=C(O)CC/C(=N\NC(=O)c1ccc(F)cc1)c1ccc(Br)cc1	0
Cc1ccc(CC2CC(=O)N(CC(=O)O)C2=O)cc1 (stereo unspecified)	14
Nc1c(S(=O)(=O)c2ccccc2)nnn1-c1ccccc1	4
Cc1ccc(S(=O)(=O)N2CCC(=O)N(C(COC(=O)Nc3ccccc3)Cc3ccccc3)CC2)cc1 (stereo unspecified)	-2
Cc1cc(N2CCOCC2)nc(SCc2c(Cl)cccc2Cl)n1	17
CCOC(=O)c1cccc(NC(=O)CCc2ccccc2)c1	13
CCOC(=O)c1c(C)[nH]c(C)c1C=O	13
Clc1ccc(CSc2nncn2-c2ccc3c(c2)OCCO3)cc1	17
CS(=O)(=O)N(CC(=O)N1CCCC1)c1cc(C(F)(F)F)ccc1Cl	28
CC(/C=C/C=C/c1ccccc1)=N/NC(=O)C(O)c1ccccc1 (stereo unspecified)	13
O=C(C1CCN(Cc2ccc(F)cc2)CC1)N(CCc1ccccc1)Cc1ccccc1	20
O=C(CC1C(=O)NCCN1CC1CCCCC1)NCc1ccc(F)cc1 (stereo unspecified)	26
OC(C#CCN1CCCC1)(c1ccccc1)c1cccnc1 (stereo unspecified)	57
COc1cc2ncc(C(=O)c3ccccc3)c(N3CCN(Cc4ccccc4)CC3)c2cc1OC	19
CCC(C)C(=O)Nc1cccc(SC)c1 (stereo unspecified)	9
Cc1ccc(-c2nc(NC(=O)c3cc(C(C)(C)C)nn3C)sc2C)cc1Cl	16
COc1ccc(/C=C(/NC(=O)c2ccc(OC)cc2)C(=O)NCCc2c[nH]c3ccccc23)cc1	21
Nc1nnnn1CC(=O)N/N=C/c1cc([N+](=O)[O-])ccc1Cl	5
CC(=O)N[C@@H](C)C(=O)N1CCN(S(=O)(=O)c2ccc(Cl)cc2)CC1	6
COC(=O)c1sccc1NC(=O)c1ccc(OC)c([N+](=O)[O-])c1	14
CCOC(=O)Cc1csc(NC(=O)Cc2ccc(Br)cc2)n1	18
CC1(C)CC(=O)C=C(NCc2cccc(C(F)(F)F)c2)C1	12
Cc1nnnn1CC(=O)Nc1cccc([N+](=O)[O-])c1	22
Cc1ccc(CNC(=O)N[C@@H](Cc2ccccc2)C(=O)O)cc1	11
Fc1cccc(-c2oncc2-c2nnnn2-c2ccc(Cl)cc2)c1	14
O=C(COC(=O)c1ccc(Br)o1)Nc1nc2c(F)c(F)c(F)cc2s1	29
O=C(N/N=C/C1C(c2ccccc2)C1(Cl)Cl)c1cccc(Cl)c1 (stereo unspecified)	29
O=C(Nc1nnc(CSCc2ccc(F)cc2)s1)c1ccc([N+](=O)[O-])cc1	3
CC1=NN(c2ccc(C)cc2)C(=O)/C1=C\c1ccc(Br)s1	-8
Cn1c(=O)[nH]c(=O)c2cc(C(=O)c3cc(F)ccc3O)cnc21	15
CC(=O)N1CCOCCOCCN(C(C)=O)CCOCCOCC1	25
COc1ccc(OCCNS(=O)(=O)c2cccc([N+](=O)[O-])c2)cc1	14
CCOCCc1c(O)nc(SC)[nH]c1=O	22
COc1ccc(C2CC(=O)C(C=NCCN3CCN(C(=S)Nc4ccccc4)CC3)=C(O)C2)cc1 (stereo unspecified)	32
CC(C)(C)S(=O)(=O)c1cnc2c(S(=O)(=O)c3ccccc3)cnn2c1N	14
CCOc1c(Cl)cc(C(=O)Nc2cccc(C(=O)O)c2)cc1Cl	26
COc1cc(CNCCCN2CCOCC2)c(Br)cc1OCC(=O)Nc1ccccc1C	15
O=C(Nc1cccnc1)c1cc(-c2ccc(Cl)cc2)on1	10
COc1ccc(S(=O)(=O)N2CCOC2CNC(=O)C(=O)NCc2cccnc2)cc1C (stereo unspecified)	13
CC(C)[C@H](NC(=O)c1ccccc1)C(=O)OCC(=O)N1CCCc2ccccc21	-15
Cc1c([N+](=O)[O-])c([N+](=O)[O-])nn1CC(=O)N1CCCCC1	8
CCOc1cccc(CN2CCN(Cc3ccc(C)o3)C(CCO)C2)c1O (stereo unspecified)	-12
CC1=CC(C)(C)C(C(=O)O)C(C(=O)O)C1 (stereo unspecified)	11
COc1ccc(N(C(C)C(=O)N/N=C(\C)C(C)(C)C)S(C)(=O)=O)cc1 (stereo unspecified)	16
CS(=O)(=O)NCCNc1ccc(C(F)(F)F)cc1[N+](=O)[O-]	12
O=C(NCCc1ccccc1F)/C(=C/c1cccnc1)NC(=O)c1ccccc1	7
COc1ccc(C2CC(c3cccs3)=NN2C(=S)Nc2ccccc2)cc1OC (stereo unspecified)	-1
CCOC(=O)c1sc(N2N=C(C)/C(=C\c3ccc(OCC(=O)OC)cc3)C2=O)nc1C	28

Random excerpt: two entries already listed, in no set order.
SMILES	Calb biofilm kill
Cc1cc(N2CCOCC2)nc(SCc2c(Cl)cccc2Cl)n1	17
CC(C)(C)c1cc(NC(=O)Nc2ccc(Br)cc2Cl)no1	14

Remaining list, next part
SMILES	Calb biofilm kill
Cc1cc(NC(=O)c2cccs2)ncc1NC(=O)c1cccc(F)c1	0
Cc1noc(C)c1-c1nnc(-c2ccc(C(F)(F)F)cc2)o1	28
CCCCCCc1c(C)nc(-n2[nH]c(C)c(CCO)c2=O)[nH]c1=O	6
Cc1cccc(NC(=S)N(CCN(C)C)Cc2cc3cccc(C)c3[nH]c2=O)c1	11
COc1cc(/C=C/C(=O)OCC(=O)c2c(N)n(C)c(=O)n(C)c2=O)ccc1OC(F)F	0
O=C(/C=C/c1cccnc1)/C=C/c1cccnc1	19
CCOc1ccccc1C(=O)Nc1cc(C(=O)NCC(C)C)ccc1Cl	25
COC(=O)C1CCN(C2=C(NS(=O)(=O)c3ccc(Cl)cc3)C(=O)c3ccccc3C2=O)CC1	14
Cc1ccc(-n2nc(C)c3c2NC2=C(C(=O)CC(C)(C)C2)C3c2ccccc2OCC(=O)O)cc1 (stereo unspecified)	11
COCCNC(=O)CCCn1c(=O)c2cc(OC)c(OC)cc2n(CC(=O)c2cccc(OC)c2)c1=O	26
CCNc1ccc(C2(O)C(=O)c3ccccc3C2=O)cc1	12
CCOC(=O)C1(CCCc2ccccc2)CCN(Cc2cnn(C)c2)CC1	14
CCC(C)N1C(=O)N(C)C2NC(=O)NC21 (stereo unspecified)	21
O=C(NCc1cccs1)c1cccn2c(=O)c3sccc3nc12	18
CCCCCc1cc(=O)oc2c(C(CCN3CCCC3)c3ccc(N(C)C)cc3)c(OC)cc(OC)c12 (stereo unspecified)	18
O=C(CN1CCN(c2ccccc2O)CC1)NC(=O)NC1CCCC1	9
Cc1cccc(C(=O)NNC(=O)c2ccc(F)cc2)c1	7
O=C(Cn1cnc2c(nnn2Cc2ccc(Cl)cc2)c1=O)N1CCCc2ccccc21	4
CCOC(=O)C1(CC2CC2)CCN(Cc2ccc3cccc(F)c3n2)CC1	27
CCOC(=O)Cc1nn(Cc2nc(-c3ccc(C#N)cc3)cs2)c(=O)c2ccccc12	11
COc1ccc(NS(=O)(=O)c2cccc(NC(=O)NC3CCCCC3)c2)cc1	-5
CCN(CC)c1ccc(N=Nc2nn(C)c(C)c2[N+](=O)[O-])cc1	19
CCOC(=O)C1(Cc2cccc(OC)c2)CCN(C(C)COC)CC1 (stereo unspecified)	14
Cc1ccc(C)[n+](CC(=O)c2ccc(-c3ccccc3)cc2)c1	15
COc1ccccc1Nc1nc(Cl)nc(NC(C)(C)C)n1	10
COc1ccc(C2C(C#N)=C(N)Oc3cc(C)[nH]c(=O)c32)cc1OC (stereo unspecified)	19
O=C(CSc1nnc(Cc2ccccc2)o1)c1ccc(F)cc1	22
COc1cc(C2C3=C(Nc4nc(N)[nH]c(=O)c42)c2ccccc2C3=O)ccc1O (stereo unspecified)	19
COc1c(Cl)cccc1-c1cn2ccc(C)cc2n1	5
COc1ccc(CC(=O)NNC(=O)CSc2nnc(C)n2-c2ccccc2)cc1	8
CC1CN(c2ccc([N+](=O)[O-])cn2)CC(C)O1 (stereo unspecified)	16
Cc1cc(C)nc(NC(=O)/C=C/c2ccc(Cl)cc2)n1	19
COc1ccc(OC)c(/C=N\NC(=O)c2ccc(=O)n(C)c2)c1	15
O=C(N/N=C/c1ccc(OCc2cnc(Cl)s2)cc1)c1ccncc1	8
COc1ccc(NC(=O)c2cc(Br)ccc2Cl)c([N+](=O)[O-])c1	10
CC#CC[N+](C)(C)CCCCCC	27
COC(=O)c1ccc(CN(C)S(=O)(=O)c2ccc(C)cc2)o1	-5
CCCCCCSC1=C(C#N)C(=O)NC2(CCCCC2)S1	11
Cc1cnc(NC(=O)C2(c3ccccc3)CC2)s1	6
Cc1ccc(C(C(=O)NCc2ccco2)N(C(=O)Cc2cccs2)c2cccnc2)cc1 (stereo unspecified)	-2
CCOc1ccc(-c2ccc(SCC)nn2)cc1	-2
CCOc1ccc(NC(=O)C(=O)N/N=C/c2cccnc2)cc1	12
NC(=NCCc1ccccc1)NS(=O)(=O)c1cccs1	18
Cc1onc(-c2c(F)cccc2Cl)c1C(=O)OCC(=O)c1c[nH]c2ccccc12	21
COc1ccc(CCNC(=O)Cn2cccc2C(=O)c2ccccc2C)cc1OC	1
Cc1nn(C)c(Cl)c1C(=O)NCC(=O)Nc1ccc(C(C)C)cc1	1
COc1ccc(-c2nn(-c3ccccc3)cc2/C=C/C(=O)NCCCn2ccnc2)cc1OC	3
CCN1CCN(c2cc(N3CCc4ccccc4C3)c(F)cc2[N+](=O)[O-])CC1	16
COC(=O)c1sccc1NC(=O)/C=C/c1ccc(Cl)cc1	17
O=C(O)c1nccnc1C(=O)Nc1ccc(S(=O)(=O)N2CCOCC2)cc1	24
CC1=C(C(=O)OC2CCCC2)C(c2coc3ccccc3c2=O)C2=C(CCCC2=O)N1 (stereo unspecified)	10
N#CCc1c(C#N)c(N)nc(N2CCN(C=O)CC2)c1C#N	10
C=CCNC(=O)c1ccc2c3n(nc2c1)-c1ccc(C)cc1CO3	13
CC(C)Nc1nc2ccccc2c(=O)[nH]1	20
Cc1ccc(Cl)c(NC(=O)COC(=O)c2ccccc2C(=O)c2ccc(Cl)c([N+](=O)[O-])c2)c1Cl	7
O=C(CSc1nc(NS(=O)(=O)c2ccccc2)cc(=O)[nH]1)Nc1ccc(Cl)cc1	6
CCOc1cc(/C=N/NC(=O)CCn2nnc3ccccc32)ccc1O	16
Fc1ccc(CSc2ccc3nnc(-c4cccs4)n3n2)cc1	11
CCOc1ccc(CN2CCN(Cc3[nH]c4ccccc4c3C)CC2CCO)cc1 (stereo unspecified)	4
Cn1c(Cc2ccccc2)nnc1SCC(=O)Nc1ccccc1	5
Remaining list, next part:
SMILES	Calb biofilm kill
COc1ccc(S(=O)(=O)N2CCOC2CNC(=O)C(=O)NCc2ccco2)cc1OC (stereo unspecified)	11
COc1ccccc1-c1nnc(-c2ccc(N3CCOCC3)cc2)o1	8
O=C(NC1CC1)C1=C[C@@H](c2ccc3c(c2)OCO3)C[C@@H](OCc2ccc(CO)cc2)O1	17
Cc1ccc(Sc2ccc(NC(=O)CCl)cc2)c(C)c1	6
NNC(=S)Nc1ccccc1Cl	5
CC(C)(C)NC(=O)NC(=O)CN1CCN(C(c2ccccc2)c2ccccc2)CC1	9
NC(=S)Nn1c(CCC(=O)O)ccc1-c1ccccc1	14
CC1(C)C2([N+](=O)[O-])CN(CCO)CC1([N+](=O)[O-])CN(CCO)C2	13
Cc1ccc(-c2nc3ccccc3c(=O)n2NC(=O)c2cccs2)cc1	11
Cc1oc(C(C)(C)C)c(CN2CCOCC2)c1C(=O)O	-6
CN(C)CCCCOc1ccc(Br)cc1Cl	-2
